ClpP mod – qHTS Assay for Activators of ClpP; purified B. subtilis ClpP, FRET peptide cleavage, 20 min; Potency, µM (doses to about 57.5 µM), without a hit: at the highest dose activity change, negative = active; 340,000 compounds, 1.9% hits; AID 651965, 2013; active = well fitted falling curve with a large enough effect; inconclusive = small, poorly fitted or top-dose-only effect; inactive = no such curve, though single readings can be large or run the other way; also: potency is read from the fitted curve at half-maximal effect; the source files actives as falling curves though it sought activators and does not explain the sign; nearly all actives have a fitted effect of over 65% in size; many hits overshoot -100%
Target sequence (P80244 whole entry, looked up): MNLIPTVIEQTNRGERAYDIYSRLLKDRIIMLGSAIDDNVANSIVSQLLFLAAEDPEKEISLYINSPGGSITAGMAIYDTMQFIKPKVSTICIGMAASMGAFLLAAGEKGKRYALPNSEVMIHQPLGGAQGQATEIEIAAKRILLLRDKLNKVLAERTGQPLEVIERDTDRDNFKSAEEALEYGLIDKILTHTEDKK
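FRET quenching reversal measured ClpP activation: 10 microg/mL B. subtilis ClpP at pH 8 with the FRET-FV decapeptide, read at 430 nm after 320 nm excitation. The 20-min minus 0-min signal was scaled between DMSO/no-enzyme wells and ADEP (5.8 microM final).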
Sfp inh – inhibitors of Bacillus subtilis Sfp phosphopantetheinyl transferase | 310,000 compounds, 3.5% hits | Potency, µM, without a hit: max response, negative = inhibition, most hits filed as inhibitors | Q9F4F7 | Biochemical Sfp PPTase activity, qHTS; active = well fitted inhibition curve with a large enough effect; inconclusive = small, poorly fitted or top-dose-only effect, or another doubt; inactive = no such curve, though single readings can be large or run the other way;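 also: the enzyme is Sfp with the accession as filed and its product quenches rhodamine fluorescence; potency is read from the fitted curve at half-maximal effect; 0% = enzyme reaction without inhibitor and -100% = no enzyme wells; top concentration of the series not given in the record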
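With Hepes-Na pH 7.6 buffer containing 10 mM MgCl2, Sfp (15 nM) modified BHQ-2-YbbR (12.5 uM) using rhodamine-CoA (5 uM). Two reads 30 minutes apart at 525/598 nm yielded each well's rate.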
gsp antag – antagonizes gsp, the McCune-Albright syndrome mutation. gsp-mutant cells, cAMP HTRF, 30 min; control for the full effect not named in the record. Potency, µM (top dose mostly 76.9 µM), inactives show top-dose activity change, negative = inhibition, actives largely listed as inhibitors. 340,000 compounds, 0.4% hits; active = falling curve of any shape with a large fitted effect; inconclusive = falling curve, mostly with a smaller effect; inactive = flat or rising curve; cell line not stated here;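 also: intracellular cAMP measured with PDE inhibitor Ro 20-1724 present during compound exposure; potency is read from the fitted curve at half-maximal effect; % is scaled to controls: 0 for no effect and ±100 for the full control effect; nearly all actives have a fitted effect of over 65% in size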
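Cells in G418 medium, seeded 16-24 h, 37C; buffer exchange to DPBS + 1 mM CaCl2, 0.5 mM MgCl2, 0.05% BSA; cpds in DMSO + […] (300 uM stock), 30 min 37C; HTRF cAMP detection.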
Menin MLL FP FL – menin-MLL binding inhibition, fluorescein peptide. Fluorescence polarization, fluorescein-MLL peptide displacement from menin. FP activity change, % at 61.4 µM. 290,000 tested, under 10 active. AID 1766; inconclusive = falling polarisation curve, or a change in total fluorescence; inactive = total fluorescence flat and polarisation flat or rising; no compound was filed as active; the % refers to the polarisation; negative = inhibition;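 also: % of control where 0% means no effect; inhibitors lower the polarisation; unlabelled MLL peptide was the positive control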
CtBP-E1A inh – CtBP/E1A binding inhibition; AlphaScreen GST-E1A/His-CtBP binding, 1536-well; stronger effect = lower value; control for the full effect not named in the record; activity change, % (concentration not given with the values); 340,000 compounds, 0.49% hits; AID 651724; in the data active means activity change below about -65%; inconclusive means about -30% to -65%; inactive means above about -30%; also: % is scaled to controls: 0 for no effect and ±100 for the full control effect
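AlphaScreen with 125 nM GST-E1A and 125 nM His-CtBP (5X stocks) in Tris pH 8.0, 300 mM NaCl, BSA, Tween 20, TCEP. Compounds preincubated 2 h at 37 deg C, then glutathione donor/nickel acceptor beads added for 1 h at 37 deg C in dark.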
gsp ag – activates gsp, the McCune-Albright syndrome mutation. gsp mutant cells, cAMP HTRF, 30 min; control for the full effect not named in the record. Potency, µM (doses to about 76.9 µM), for the others: top-dose activation (cAMP increase), most hits filed as activators. 340,000 compounds, 0.13% hits; active = well fitted activation curve with a large enough effect; inconclusive = small, poorly fitted or top-dose-only effect, or another doubt; inactive = no such curve, though single readings can be large or run the other way; cell line not stated here;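 also: phosphodiesterase inhibitor Ro 20-1724 added with compounds to block cAMP breakdown; potency is read from the fitted curve at half-maximal effect; nearly all actives have a fitted effect of over 60% in size; about a fifth of the inactives were tested at one dose only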
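Cells stably selected in G418 were plated at 2000/well, grown 16-24 hr, then given compounds in DMSO with the PDE inhibitor […] (300 uM solution added) for 30 min at 37C; cAMP was read by HTRF.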
TRPV1 PAM – human TRPV1 potentiation; 320,000 compounds, 0.02% hits; potentiation, % at 8.33 µM; TRPV1-expressing cells, Fluo-8 calcium influx, capsaicin EC20 potentiation; host cell line not named in the record; control for the full effect not named in the record; AID 540277; active means potentiation above 80%; inconclusive means 30% to 80%; inactive means below 30%; also: 0% is about no effect
Target sequence (Q8NER1 whole entry, looked up): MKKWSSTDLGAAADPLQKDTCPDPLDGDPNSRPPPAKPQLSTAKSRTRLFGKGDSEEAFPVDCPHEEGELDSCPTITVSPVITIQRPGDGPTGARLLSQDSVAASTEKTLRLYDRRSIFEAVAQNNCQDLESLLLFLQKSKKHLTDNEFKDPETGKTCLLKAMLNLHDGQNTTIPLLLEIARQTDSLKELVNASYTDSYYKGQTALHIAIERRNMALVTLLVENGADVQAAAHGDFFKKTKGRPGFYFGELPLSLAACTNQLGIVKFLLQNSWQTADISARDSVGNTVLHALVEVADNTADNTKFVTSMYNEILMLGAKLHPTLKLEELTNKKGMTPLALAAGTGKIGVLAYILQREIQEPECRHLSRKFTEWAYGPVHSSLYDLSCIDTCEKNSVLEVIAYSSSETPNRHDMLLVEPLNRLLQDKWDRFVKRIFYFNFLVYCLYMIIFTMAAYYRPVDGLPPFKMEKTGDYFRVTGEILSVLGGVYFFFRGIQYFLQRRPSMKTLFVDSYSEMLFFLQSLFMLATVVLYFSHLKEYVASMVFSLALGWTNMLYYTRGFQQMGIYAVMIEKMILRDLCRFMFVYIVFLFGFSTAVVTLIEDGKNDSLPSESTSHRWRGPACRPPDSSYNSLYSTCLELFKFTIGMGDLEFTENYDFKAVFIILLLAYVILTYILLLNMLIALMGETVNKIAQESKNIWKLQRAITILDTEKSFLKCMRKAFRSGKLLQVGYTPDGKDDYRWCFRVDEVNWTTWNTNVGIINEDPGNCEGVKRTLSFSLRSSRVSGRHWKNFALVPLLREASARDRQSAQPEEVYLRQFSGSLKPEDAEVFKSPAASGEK
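Fluo-8 calcium influx in TRPV1-expressing cells, kinetic read (ex 480/em 520 nm). Compound added and read 3 min for agonist activity, followed by capsaicin at EC20 final and 2 min further read for enhancement.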
Numbers without * were called inactive; ? = inconclusive; . = not tested or not shown; [ ] = dose if it differs, or a comment.

cpd	Compound	ClpP mod	Sfp inh	gsp antag	Menin MLL FP FL	CtBP-E1A inh	gsp ag	TRPV1 PAM
1	C=CCn1c(SCc2cc(=O)n3ccsc3n2)nc2cc(Cl)ccc2c1=O	.	6.6%	.	1.2	0.0	9.8%[15.4 µM]	-3.5
2	N#CC(=C1SC=CS1)c1nc(-c2ccccc2)cs1	?	-13.7%	-20.1%	5.1	9.7	-19.3%	21.3
3	CC(c1ccncn1)N(C)Cc1nc(-c2ccc(C(F)(F)F)cc2)no1 (configuration not stated)	-0.8%	13.7%	11.6%	.	10.7	-28.7%	9.2
4	NC(=O)C1CCN(Cc2nnnn2Cc2ccco2)CC1	-5.6%	9.1%	9.6%	0.5	-4.9	6.1%	-1.0
5	CC(OC(=O)CNC(=O)c1ccco1)C(=O)N(C)c1ccccc1 (configuration not stated)	1.5%	21.7%	4.4%	-1.2	.	3.7%	29.5
6	CCC(C)NC(=O)C1c2ccccc2Oc2ccccc21 (configuration not stated)	.	5.9%	-5.4%	0.0	1.1	-76.4%[inhibitor][15.4 µM]	.
7	c1ccc(-c2cn(-c3ccccc3)c3[n+]2CCS3)cc1	.	5.4%	-4.2%	24.4	6.0	9.9%	-1.7
8	CCOc1ccccc1C(=O)NCC(=O)N1CCC(C)CC1	-1.3%	.	6.3%	.	-8.1	5.6%[15.4 µM]	.
9	Cn1c(=O)c2c(nc(Br)n2Cc2c(F)cccc2Cl)n(C)c1=O	.	6.5%	.	2.2	.	.	3.2
10	COc1ccc(C)cc1NC(=O)c1ccc(NC(=O)CC2SC(N3CCCC3)=NC2=O)cc1 (configuration not stated)	0.0%	-13.3%	10.9%	1.3	-1.1	?	?
11	COc1cccc(NC2c3ccccc3C(=O)N2Cc2ccccc2Cl)c1 (configuration not stated)	.	2.7%	-14.2%	12.9	-19.9	-11.0%[15.4 µM]	15.3
12	Cc1oc2c(O)c(O)ccc2c(=O)c1-c1ccc(Cl)cc1	.	-17.9%	-26.2%	3.3	-22.3	18.4%	-6.8
13	Cc1cc(N2C(=O)C3C4C=CC(C4)C3C2=O)no1 (configuration not stated)	-0.3%	11.7%	13.3%	2.8	3.2	19.6%	-6.4
14	Oc1ccc(/C=N/Nc2nc(-c3ccccc3F)nc3ccccc23)c(O)c1	-2.5%	7.1%	?	?	?	?	11.0
15	O=c1cc(-c2ccccc2)[nH][nH]1	-21.9%	-8.1%	-0.9%	-1.1	-0.1	-3.7%	-11.9
16	O=C(CN1C(=O)c2ccccc2C1=O)NCCc1c[nH]c2ccccc12	-0.9%	10.3%	2.2%	7.5	-12.6	-29.7%	11.0
17	O=C1Cc2cc([N+](=O)[O-])ccc2N1c1c(Cl)cccc1Cl	-0.8%	1.2%	2.8%	0.9	-3.8	4.6%[15.4 µM]	?
18	O=C(O)CSc1nnc(COc2cccc3ccccc23)o1	-0.6%	6.6%	9.9%	2.9	2.4	0.0%[15.4 µM]	6.9
19	COc1ccc(CNC(=O)CN(c2ccc(OC)c(Cl)c2)S(=O)(=O)c2ccc(C)cc2)cc1	-8.6%	17.9%	?	.	1.0	0.0%	4.8
20	CCOCCCn1c(SC(C)C(=O)NCC2CCCO2)nc2sc(C)c(C)c2c1=O (configuration not stated)	2.5%	.	3.7%	.	0.6	-18.4%	-21.7
21	O=C(CCCOc1ccc(Cl)cc1)NC1CCCCC1	-0.8%	9.8%	3.6%	-2.8	12.5	1.8%	-18.9
22	O=C(NCCc1cn2cccnc2n1)C1CCC(=O)N(Cc2ccccc2F)C1 (configuration not stated)	3.8%	.	.	.	5.4	?	.
23	CCOCCCNC(=O)c1ccc2c(c1)ncn2-c1ccccc1OC	.	8.8%	0.7%	-3.0	-4.0	-28.5%[15.4 µM]	8.0
24	CC(C)CC(c1nnnn1Cc1ccccc1)N1CCN(C(=O)c2ccco2)CC1 (configuration not stated)	-1.7%	-5.0%	-16.7%	-1.2	-1.9	-22.6%	-2.0
25	C[C@@H](C(=O)NCCc1ccc(F)cc1)N1C(=O)N2CCc3c([nH]c4ccccc34)[C@@]2(C)C1=O	-2.5%	9.0%	?	-4.6	-21.5	.	2.1
26	C[C@@H]1CCCCO[C@H](CN(C)S(=O)(=O)c2cccs2)[C@@H](C)CN([C@H](C)CO)C(=O)c2cc(NC(=O)C3CCCCC3)ccc2O1	1.0%	.	.	.	-1.2	-5.7%	.
27	COc1cc(/C(C)=N/NC(=O)CN2CCN(S(=O)(=O)c3ccc(C)cc3)CC2)ccc1O	-6.0%	10.3%	-8.1%	4.7	-6.9	28.4%	-0.2
28	CCN(CC)S(=O)(=O)c1ccc(-c2nnc(SCc3nnc(-c4ccccc4)o3)o2)cc1	-3.0%	1.0%	3.1%	2.4	1.5	-16.9%	-2.1
29	Cc1ccsc1C(=O)Nc1ccccc1N1CCCC1	-6.0%	.	-3.6%	.	-19.7	9.3%[15.4 µM]	-1.1
30	COC(=O)CN1C(=O)[C@H]2[C@@H](C3CC3)N3C(=O)CN(CCO)C(=O)[C@@]3(Cc3ccccc3)[C@H]2C1=O	1.7%	9.3%	6.7%	-0.9	-0.4	.	-4.7
31	CCc1cc(=O)oc2cc(C)c(CN3CCCC(C)C3)c(O)c12 (configuration not stated)	-2.7%	?	-1.0%	10.7	2.4	30.5%	5.2
32	Brc1ccc(-c2nnc3sc(CNCc4ccc5c(c4)OCO5)cn23)cc1	-3.6%	10.1%	1.4%	2.2	-1.8	21.5%	0.9
33	Cc1cc2n(n1)C(c1cn(-c3ccccc3)nc1C)Nc1c(C)cccc1-2 (configuration not stated)	8.91µM*	2.7%	-1.3%	1.2	-6.4	-2.6%	3.9
34	Cn1c(=O)c([N+](=O)[O-])c(N2CCSCC2)c2ccccc21	0.6%	-20.6%	-14.7%	0.7	4.1	-9.9%[15.4 µM]	-15.7
35	COc1cccc(NC(=O)NNC(=O)C(C)Oc2ccc3ccccc3c2)c1 (configuration not stated)	-1.7%	-1.4%	-19.3%	-5.7	-0.2	-26.5%	-6.0
36	O=Cc1ccc(N2CCCC2)c([N+](=O)[O-])c1	.	9.6%	-15.2%	-0.4	-1.1	3.4%[15.4 µM]	10.1
37	COc1nc(-c2ccccc2)nc(C)c1CC(=O)O	.	13.8%	-8.1%	-0.3	10.7	-6.6%[15.4 µM]	23.5
38	N#CCC(=O)Nc1ccc(C(=O)Nc2ccc3c(c2)OCO3)cc1	-1.2%	.	-4.8%	.	-22.6	-31.6%[inhibitor]	6.1
39	N#Cc1ccccc1Cn1c(-c2cscn2)nc2ccccc21	-3.5%	-1.4%	10.9%	2.9	-0.1	20.1%	-14.9
40	Cn1c(=O)c(C(=O)Nc2ccccc2S(N)(=O)=O)c(O)c2ccccc21	1.3%	1.7%	-11.4%	2.8	3.7	?	-1.9

As entered above:
Entry for entry 39 in Menin MLL FP FL: 2.9
Entry for entry 32 in gsp antag: 1.4%
Entry for entry 35 in Menin MLL FP FL: -5.7
Entry for entry 25 in Sfp inh: 9.0%

New compounds follow.
cpd	Compound	ClpP mod	Sfp inh	gsp antag	Menin MLL FP FL	CtBP-E1A inh	gsp ag	TRPV1 PAM
41	COc1cc(CNCCO)ccc1OCC(=O)Nc1ccc(Br)cc1	1.4%	16.8%	9.9%	6.6	-3.7	-30.0%[inhibitor]	20.2
42	CN(C)S(=O)(=O)c1cc(NC(=O)COC(=O)c2nc(Cl)ccc2Cl)ccc1Cl	.	.	-15.2%	.	-8.5	13.3%	.
43	CC1(C)CC2CC(C)(CN2S(=O)(=O)c2ccc(F)cc2F)C1 (configuration not stated)	-0.6%	.	-1.5%	.	5.6	12.1%	-12.8
44	COc1cc(N2CCCC2)c(OC)cc1/C=C(/C#N)c1ccc(Br)cc1	2.8%	-10.8%	-5.9%	?	?	-13.0%	5.1
45	O=C(Nc1cccc(C(F)(F)F)c1)Nc1ccc2[nH]c(=O)[nH]c2c1	.	1.6%	4.3%	7.4	-2.0	-2.9%	-14.2
46	O=C(CN(Cc1ccccc1)S(=O)(=O)c1ccccc1)NC1CC1	0.5%	17.9%	8.2%	-1.5	5.9	-20.1%	3.3
47	Cc1ccccc1CN1C(=O)C(C)S/C1=N/N=C/c1ccco1 (configuration not stated)	1.8%	79.4µM*	-14.0%	?	0.2	-22.3%	-9.9
48	CCCc1cc(Nc2cccc(OC)c2)n2ncnc2n1	1.5%	2.6%	6.8%	8.1	1.8	-26.6%	0.0
49	CCOC(=O)C1=C(COC(=O)c2ncc(Cl)c(Cl)c2Cl)NC(=O)NC1C (configuration not stated)	-10.0%	.	1.5%	.	6.4	-70.0%[inhibitor]	-23.4

Single records (already shown). Screens in order: ClpP mod	Sfp inh	gsp antag	Menin MLL FP FL	CtBP-E1A inh	gsp ag	TRPV1 PAM
CN(C)S(=O)(=O)c1cc(NC(=O)COC(=O)c2nc(Cl)ccc2Cl)ccc1Cl reads .	.	-15.2%	.	-8.5	13.3%	.
COc1cc(CNCCO)ccc1OCC(=O)Nc1ccc(Br)cc1 reads 1.4%	16.8%	9.9%	6.6	-3.7	-30.0%[inhibitor]	20.2
CCOC(=O)C1=C(COC(=O)c2ncc(Cl)c(Cl)c2Cl)NC(=O)NC1C (configuration not stated) reads -10.0%	.	1.5%	.	6.4	-70.0%[inhibitor]	-23.4
O=C(Nc1cccc(C(F)(F)F)c1)Nc1ccc2[nH]c(=O)[nH]c2c1 reads .	1.6%	4.3%	7.4	-2.0	-2.9%	-14.2
